Screening data deposited in PubChem BioAssay by National Center for Advancing Translational Sciences (NCATS).
SARS PLP yeast = inhibitors of SARS-CoV papain-like protease in yeast; S. cerevisiae expressing SARS-CoV PLpro, growth rescue; control for the full effect not named in the record; Potency, µM (highest dose often 32.9 µM), without a hit: at the highest dose activity, positive = growth rescue; 330,000 tested, 0.19% active; AID 485353; note: 0% is about no effect; nearly all actives have a fitted effect of over 55% in size; growth read by luminescence after 48 h
RE007 growth inh = less growth of the S. pombe RE007 Vpr strain. S. pombe RE007 Vpr strain, BacTiter-Glo ATP luminescence, 24 h; control for the full effect not named in the record. Potency, µM (series often up to 92.2 µM), without a hit: top-dose activity change, negative = less growth. 360,000 tested, 0.21% active; active = well fitted falling curve with a large enough effect; inconclusive = small, poorly fitted or top-dose-only effect; inactive = no such curve, though single readings can be large or run the other way;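 note: % is set by controls: 0 for no effect and ±100 for the full control effect; nearly all actives have a fitted effect of over 50% in size; the assay follows cell death caused by Vpr and the record does not say whether a fall means rescue or toxicity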
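Fission yeast RE007 carrying one integrated HIV-1 vpr copy, seeded at OD 0.01 in PMG+AL medium with 23 nL pinned compound. Grown 24 h at 30 degrees; viability read by BacTiter-Glo luminescence after 5 min.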
Marburg entry inh = inhibitors of Marburg virus binding or cell entry; Marburg virus pseudotyped entry inhibition, cell reporter; control for the full effect not named in the record; about a third of the inactives were read at about 46 µM; Potency, µM (highest dose often 37.8 µM), for inactives: top-dose activity change, negative = inhibition, most hits filed as inhibitors; 300,000 tested, 1.8% active; AID 540276; active = well fitted inhibition curve with a large enough effect; inconclusive = small, poorly fitted or top-dose-only effect, or effect the other way; inactive = flat fitted curve, though single readings scatter; tested in HEK293 cells; about a fifth of its hits are not listed in these tables; note: % is set by controls: 0 for no effect and ±100 for the full control effect; luciferase read-out
2A StopGo = FMDV 2A StopGo reporter, luciferase signal | human cells with a luciferase reporter of 2A StopGo recoding; control for the full effect not named in the record | Potency, µM (titrated, usually from 57.9 µM), inactives show at the top dose signal change, negative = less light | 410,000 tested, 1.2% active; active = well fitted falling curve with a large enough effect; inconclusive = small, poorly fitted or top-dose-only effect; inactive = no such curve, though single readings can be large or run the other way; tested in HEK293T cells; note: % is set by controls: 0 for no effect and ±100 for the full control effect; nearly all actives have a fitted effect of over 45% in size; luciferase light after 4 h
Cruzain inh noDet = cruzain (T. cruzi) inhibition without detergent; Potency, µM, without a hit: max response, negative = inhibition, hits mostly inhibitors; purified cruzain, Z-FR-AMC fluorescence, no detergent; P25779; 200,000 tested, 2.3% active; AID 1476; active = well fitted curve in the direction sought with a large enough effect; inconclusive = small, poorly fitted or top-dose-only effect, or another doubt; inactive = no such curve, though single readings can be large; an effect the other way counts as inactive or inconclusive;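 note: plate controls were enzyme without inhibitor for no effect and buffer without enzyme for full effect; nearly all actives have a fitted effect of over 40% in size; top concentration of the series not given in the record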
Target sequence (P25779 123-467 limits assumed): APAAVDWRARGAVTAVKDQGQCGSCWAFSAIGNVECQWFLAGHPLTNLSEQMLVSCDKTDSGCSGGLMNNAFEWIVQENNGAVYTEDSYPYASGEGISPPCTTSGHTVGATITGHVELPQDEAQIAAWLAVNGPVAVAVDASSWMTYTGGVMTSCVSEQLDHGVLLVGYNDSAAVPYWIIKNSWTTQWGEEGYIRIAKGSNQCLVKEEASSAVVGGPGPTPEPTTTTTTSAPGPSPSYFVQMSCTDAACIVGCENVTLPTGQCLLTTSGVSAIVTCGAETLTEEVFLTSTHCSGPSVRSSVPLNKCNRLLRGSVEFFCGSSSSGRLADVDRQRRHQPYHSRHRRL
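Purified cruzain at 1.5 nM, pre-incubated 15 min with compound at room temperature in 100 mM sodium acetate pH 5.5, 5 mM DTT, 0.00005% Triton X-100. Reaction started with 2 uM Z-FR-AMC; AMC fluorescence increase over 60 s gives rate.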
LASV entry inh = inhibitors of Lassa virus binding or cell entry. 300,000 tested, 1.2% active. Potency, µM (titrated, usually from 37.9 µM), for the others: at the top dose activity change, negative = inhibition, usual class: inhibitors. AID 540256. Lassa virus pseudotype entry inhibition, cell reporter; control for the full effect not named in the record; active means well fitted inhibition curve with a large enough effect; inconclusive means small, poorly fitted or top-dose-only effect, or effect the other way; inactive means flat fitted curve, though single readings scatter; tested in HEK293 cells; note: % is set by controls: 0 for no effect and ±100 for the full control effect; nearly all actives have a fitted effect of over 50% in size; luciferase read-out
Cruzain Triton = cruzain (T. cruzi) inhibition with detergent; purified cruzain, Z-FR-AMC fluorescence, 0.01% Triton; Potency, µM, inactives show max response, negative = inhibition, hits mostly inhibitors; 200,000 tested, 0.43% active; AID 1478; active = well fitted curve in the direction sought with a large enough effect; inconclusive = small, poorly fitted or top-dose-only effect, or another doubt; inactive = no such curve, though single readings can be large; an effect the other way counts as inactive or inconclusive;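 note: plate controls were neutral wells for no effect and buffer without enzyme for full effect; nearly all actives have a fitted effect of over 40% in size; top concentration of the series not given in the record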
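Z-FR-AMC hydrolysis (2 uM substrate) by cruzain (1.5 nM) monitored kinetically at ex 360/em 450 nm after 15 min room-temperature compound exposure; 0.01% Triton X-100, pH 5.5, 5 mM DTT.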
NS1 function inh = inhibitors of influenza NS1 protein function. 270,000 tested, 0.4% active. Potency, µM (doses to about 46.1 µM), for inactives: at the highest dose activity, positive = more growth. S. cerevisiae slowed by influenza A NS1, growth recovery by OD600; note: actives are rising curves; nearly all actives have a fitted effect of over 50% in size
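Recovery from NS1-induced slow growth read by OD600 in budding yeast switched to galactose assay medium (pH 6.0, -URA) at 1:100 dilution. Compound 23 nl per well; the matching strain lacking NS1 serves as control.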
Active calls of the source: *; u = inconclusive; x = not tested or not shown; & = joins results of further samples; [ ] = dose if it differs, or a comment. Unless noted, calls come from the whole dose curve; as a rule, active means well fitted rising curve with a large enough effect; inconclusive means small, poorly fitted or top-dose-only effect; inactive means no such curve, though single readings can be large or run the other way. Potency is the fitted concentration of half-maximal effect.

SMILES	SARS PLP yeast	RE007 growth inh	Marburg entry inh	2A StopGo	Cruzain inh noDet	LASV entry inh	Cruzain Triton	NS1 function inh
CCCOc1ccc(C(=O)CCC(=O)OCC(=O)N(C)c2c(N)n(Cc3ccccc3)c(=O)[nH]c2=O)cc1	1%	0%	8%	3%	x	7%	x	19%
Cc1nc(NC(=O)c2cc3ccccc3o2)sc1C	-10%	-11%	u	-51%	x	u	x	-5%
Cc1ccc2cc3c(nc2c1)OCC3	2%	0%	1%[46.1 µM]	12%	x	-21%	x	-7%
C=CCc1cc(Cl)ccc1OCCOCCNC(C)(C)C	-1%	9%	x	-21%	x	x	x	-5%
O=c1c2ccccc2cnn1Cc1n[nH]c(=S)n1-c1ccc(F)cc1	-1%	15%	20%[46.1 µM]	-18%	x	20%	x	6%
CCc1cccc(NC(=O)CCC(=O)N2CCSc3ccccc32)c1	-9%	0%	x	-27%&-28%	3%	-5%[46.1 µM]	-5.0%	-36%
O=C(Cn1c(=O)oc2cc(S(=O)(=O)N3CCc4ccccc43)ccc21)N1CCCCC1	-11%	-2%	-4%	0%	-4%	x	8.3%	-41%
CCC1S/C(=N/N=C/c2ccco2)NC1=O (stereo not given)	0%	-9%	10%	-1%	2%	u	-7.5%	1%
CCSc1oc(-c2ccc(F)cc2)nc1S(=O)(=O)c1ccc(C)cc1	x	x	-8%[46.1 µM]	-12%	10%	-8%[46.1 µM]	-6.6%	x
COc1cc(C(C(=O)NC2CCCCC2)N(CCN2CCOCC2)C(=O)C2COc3ccccc3O2)cc(OC)c1OC (stereo not given)	-1%	-7%	-9%[46.1 µM]	7%	x	15%	x	3%
O=S(=O)(Nc1nc2ccccc2[nH]1)c1ccccc1	0%	-5%	0%	1%	-3%	3%	-3.4%	-46%
Cc1noc(C)c1CN(C(=S)NC1CC1)c1ccccc1	4%	-12%	0%	-13%	0%	18%	0.3%	-1%
Cc1cc(C)c(NC(=O)c2cc3sc(Cl)cc3n2C)c(C)c1	x	x	u	-9%	4%	x	-0.1%	x
CCOc1ccc(/C(O)=C2/C(=O)C(=O)N(c3ncccn3)C2c2ccc(Cl)cc2)cc1 (stereo not given)	0%	2%	22%[46.1 µM]	0%	x	16%[46.1 µM]	x	1%
CC(=O)NCCC1CCCCN1C(=O)c1cc(COc2cc(C)ccc2C)on1 (stereo not given)	10%	-13%	x	10%	x	x	x	-7%
COc1ccc([N+](=O)[O-])cc1NC(=O)CSCc1ccc(Br)cc1	-9%	20%	1%	-29%	-4%	19%	-10.0%	-4%
Cc1nc(N)ncc1Sc1ccc(Cl)cc1	1%	-1%	-6%[46.1 µM]	-10%	x	u	x	x
CC(=O)NCCC(=O)Nc1cc(S(=O)(=O)N2CCCCC2)ccc1Oc1cccc(C)c1	0%	-14%	-8%	-13%	x	-8%	x	-5%
COC(=O)c1cc(NCc2cccs2)ccc1N1CCOCC1	-2%	-1%	24%	7%	3%	u	8.3%	-3%
[O-]C(=C(C(=S)Nc1cccc2ccccc12)[n+]1cccc(CO)c1)c1ccc(Cl)s1	x	-3%	2%	-3%	x	14%	x	x
CC1(C)Cc2c(C#N)c(SCCO)nc(N3CCOCC3)c2CO1	2%	1%	-26%	-22%	x	8%	x	1%
Cc1ccc(/C=N/NC(=O)Cn2ccc(C(F)(F)F)n2)o1	-2%	18%	-5%[46.1 µM]	3%	x	3%	x	x
CC(C)(CO)NC(=O)CC1C(=O)NCCN1CC(c1ccccc1)c1ccccc1 (stereo not given)	2%	5%	11%[46.1 µM]	-2%	x	-19%[46.1 µM]	x	6%
O=C1NC(=O)N(Cc2ccco2)C(=O)/C1=C\c1cccn1CCOc1ccccc1	-1%	2%	9%[46.1 µM]	44%[activator]	x	-12%[46.1 µM]	x	7%
O=C(COc1ccccc1)Nc1ccc(F)cc1	x	2%	8%[46.1 µM]	18%	x	11%[46.1 µM]	x	x
O=C(NCCCN1CCCCCC1)c1ccc2c(c1)sc1nc(-c3ccccc3)cn12	x	x	x	16%	-6%	3%[46.1 µM]	-0.8%	x
O=C(Nc1ccnn1C1CCN(CCCc2ccccc2)CC1)c1ccccc1Cl	u	-16%	12%	-29%	x	2%	x	2%
Cc1nn(CC(=O)Nc2ccc(C#N)cc2)c(C)c1[N+](=O)[O-]	0%	17%	x	-5%	x	x	x	-2%
CN1C(=O)/C(=C/c2ccc(C(=O)NC3CCCC3)cc2)Oc2ccccc21	-1%	26%	x	3%	x	x	x	-3%
CN1CCN(CC(=O)Nc2ccccc2C(F)(F)F)CC1	-7%	5%	x	-13%	x	x	x	-10%
Cn1c(=O)[nH]c(=O)c2c1nc(NCCCO)n2CCCc1ccccc1	-6%	-8%	3%	x	-4%	-4%	4.3%	-22%
Cc1cc(O)cc2c1C(c1ccc(F)cc1)CC1(CC(C)(C)NC(=S)N1)O2 (stereo not given)	-1%	7%	-9%[46.1 µM]	-22%	x	u	x	4%
O=C(NNC(=O)C1[C@H]2CCCC[C@@H]12)NC1CCCCC1 (stereo not given in full)	-2%	-12%	-3%	23%	-3%	5%	-2.7%	1%
CN(Cc1cccc(F)c1)C(=O)c1ccc(S(=O)(=O)N2CCCCCC2)cc1	-30%	9%	u	-4%	x	u	x	x
O=C(CNC(=S)N(Cc1ccccc1)Cc1cccnc1)NCc1ccccc1	2%	13%	u	-15%	x	-20%	x	x
Nc1cccc2c1C(=O)c1ccc(Cl)cc1C2=O	x	u	u	34%[activator]	x	-5%[46.1 µM]	x	x
COc1cccc(C(=O)COC(=O)c2ccc(NC(C)=O)cc2)c1	5%	6%	u	21%	-6%	13%	-1.3%	-6%
COCCn1c(SCC(=O)N2CCC(C)CC2)nc2c([nH]c3ccccc32)c1=O	-5%	-2%	-19%	-9%	x	-11%	x	12%
O=C(Nc1ccc2c(c1)OCCO2)C1c2ccccc2C(=O)N2CCc3ccccc3C12 (stereo not given)	0%	1%	-7%	0%	-3%	x	-0.2%	0%
Clc1cccc(CN2CCSCC2)c1	8%	3%	x	8%	x	x	x	17%
Nc1ccc2nc3c(=O)n(C4CCCCC4)c(=O)[nH]c3nc2c1	1%	8%	x	43%[activator]	x	x	x	7%
O=C(CSc1ccc(Cl)cc1)NCc1ccncc1	-1%	-6%	-2%[14.2 µM]	0%	x	-10%	x	x
CCCN1Cc2cccc(C(=O)NCc3ccc(C)cc3)c2C1=O	0%	-2%	6%	17%	x	u	x	x
CC(C)(C)c1cc(=O)n2c(nc3ccccc32)[nH]1	-18%	-16%	-29%	-23%	-4%	15%	4.8%	-62%
CCCS(=O)(=O)N1CCC(CCOc2ccccc2)(C(=O)OCC)CC1	-1%	24%	-15%[46.1 µM]	0%	x	u	x	-7%
COc1ccc(NC(=O)Cn2nnc(C(=O)Nc3ccc(C)c(F)c3)c2N)cc1Cl	x	x	x	18%	6%	u	0.5%	x
CC(=O)NCCOc1cccc(OCCNC(C)=O)c1	-12%	28%	-1%	-16%	21%	-1%	-0.8%	u
O=C(Oc1cccccc1=O)c1ccccc1	3%	-7%	x	-18%	x	x	x	-11%
CCN(c1ccccc1)S(=O)(=O)c1ccc(OC)c(NC(=O)c2cc(F)c(F)c(F)c2F)c1	17%	-18%	0%	-21%	x	0%	x	x
Cc1ccc(S(=O)(=O)c2ccccc2)cc1S(=O)(=O)N1CCOCC1	14%	7%	2%	8%	23%	-23%	-1.9%	5%
(continued)
SMILES	SARS PLP yeast	RE007 growth inh	Marburg entry inh	2A StopGo	Cruzain inh noDet	LASV entry inh	Cruzain Triton	NS1 function inh
COc1ccc(CCc2nnc(CCC(=O)NCCc3ncccc3C)o2)cc1	1%	-12%	x	16%	x	x	x	3%
C=CCOC(=O)c1ccccc1C(=O)OCC1CO1 (stereo not given)	x	2%	u	0%	x	13%[46.1 µM]	x	x
Cc1ccc(S(=O)(=O)N2CCN(C(=O)N3CCOCC3)C2C(C)C)cc1 (stereo not given)	-1%	2%	2%	-8%	6%	18%	0.0%	-3%
COc1cc(NC(=O)C2CCN(S(=O)(=O)c3cnc[nH]3)CC2)cc(OC)c1OC	22%	10%	22%	x	4%	-9%	-2.7%	-16%
Cc1ccc(NS(=O)(=O)c2ccc3c(c2)NC(=O)C(C)C(=O)N3)c(Cl)c1 (stereo not given)	-1%	0%	x	u	x	x	x	0%
O=C(O)C1=C[C@@H](c2ccc3c(c2)OCO3)C[C@@H](OCc2ccc(CO)cc2)O1	0%	10%	x	1%	x	x	x	-1%
COc1cccc2sc(N3CCN(C(=O)C4COc5ccccc5O4)CC3)nc12 (stereo not given)	-13%	-21%	u	-29%	x	0%	x	x
O=C(Nc1ccc(NC(=O)C2CCCN2C(=O)OCc2ccccc2)cc1)c1ccco1 (stereo not given)	0%	13%	-10%	0%	-14%	-29%	-2.4%	-3%
COc1ccc(-c2nc3ccccc3c(=O)n2CC(C)C)cc1	-1%	-20%	u	-19%	x	2%	x	4%
Cc1ccc[n+](C(C)C(=O)Nc2ccc(C)c(C)c2)c1 (stereo not given)	5%	-14%	x	0%	x	x	x	-13%
O=C(CSc1ccccc1)Nc1ccccc1N1CCOCC1	5%	-8%	-11%	-15%	-3%	2%	0.8%	-17%
CC(C)C1CC(=O)NC(SCC(=O)Nc2ccc(Br)cc2)=C1C#N (stereo not given)	-1%	-5%	u	u	-1%	u	-3.7%	0%
CC(C)C(=O)N1CCN(c2nc3ccc(Cl)cc3s2)CC1	-12%	16%	x	6%	x	x	x	-16%
O=C(CN(c1ccc(F)cc1)S(=O)(=O)c1ccc2c(c1)OCCO2)Nc1cccnc1	1%	10%	-3%&13%	-3%	1%	u	2.5%	-1%
O=C1C2CCCN2C(c2ccc(F)c(F)c2)N1c1cccc(Cl)c1 (stereo not given)	-5%	7%	x	-23%	-8%	x	0.8%	-17%
CCOC(=O)COn1c(=O)c(-c2cc3ccccc3o2)[n+]([O-])c2ccccc21	-6%	-12%	-24%[46.1 µM]	57%[activator]	4%	u	-10%	-46%
CCN=C1S/C(=C\c2ccc(OC)c(OCC)c2)C(=O)N1CC	-21%	x	0%	x	-3%	12%	-3.4%	6%
COc1cc(NC(=O)c2cc3cc4ccc(C)cc4nc3o2)cc(OC)c1OC	x	x	u	3.2µM*	-1%	u	-2.6%	x
CC(C)C(NC(=O)OCc1ccccc1)C(=O)NCc1ccc(C(=O)O)cc1 (stereo not given)	15%	0%	u	-12%	27%	15%	-0.3%	8%
